# Screening data deposited in PubChem BioAssay by National Center for Advancing Translational Sciences (NCATS).
# Cruzain inh Det – inhibitors of Trypanosoma cruzi cruzain with detergent | P25779 | purified cruzain, Z-FR-AMC fluorescence, 0.01% Triton | Potency, µM, for inactives: max response, negative = inhibition, actives largely listed as inhibitors | actives 0.43% (n = 200,000) | AID 1478;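 also: plate controls were neutral wells for no effect and buffer without enzyme for full effect; nearly all actives have a fitted effect of over 40% in size; top concentration of the series not given in the record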
# Target sequence (P25779 123-467 limits assumed): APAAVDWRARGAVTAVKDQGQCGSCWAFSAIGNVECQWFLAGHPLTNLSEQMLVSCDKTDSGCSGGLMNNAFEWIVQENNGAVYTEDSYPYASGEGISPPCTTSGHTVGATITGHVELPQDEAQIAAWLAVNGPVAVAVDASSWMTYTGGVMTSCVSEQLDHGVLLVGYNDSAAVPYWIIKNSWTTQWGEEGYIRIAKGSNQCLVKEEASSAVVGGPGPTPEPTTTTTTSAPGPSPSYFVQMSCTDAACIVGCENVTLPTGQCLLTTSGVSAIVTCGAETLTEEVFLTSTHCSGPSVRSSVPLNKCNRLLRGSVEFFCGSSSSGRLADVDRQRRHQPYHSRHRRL
#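 Cruzain (1.5 nM) preincubated 15 min at RT with compound in 100 mM sodium acetate pH 5.5, 5 mM DTT, 0.01% Triton X-100. Reaction started with 2 uM Z-FR-AMC; AMC fluorescence (ex 360/em 450 nm) change over 60 s gave rate.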
# Lassa entry inh – inhibitors of Lassa virus binding or cell entry | Potency, µM (titrated, usually from 37.9 µM), for the others: at the top dose activity change, negative = inhibition, hits mostly inhibitors | Lassa virus pseudotype entry inhibition, cell reporter; control for the full effect not named in the record | actives 1.2% (n = 300,000) | AID 540256; active means well fitted inhibition curve with a large enough effect; inconclusive means small, poorly fitted or top-dose-only effect, or effect the other way; inactive means flat fitted curve, though single readings scatter; tested in HEK293 cells; also: % is scaled to controls: 0 for no effect and ±100 for the full control effect; nearly all actives have a fitted effect of over 50% in size; luciferase read-out
# MARV entry inh – inhibitors of Marburg virus binding or cell entry | Marburg virus pseudotyped entry inhibition, cell reporter; control for the full effect not named in the record; about a third of the inactives were read at about 46 µM | Potency, µM (top dose mostly 37.8 µM), inactives show at the highest dose activity change, negative = inhibition, hits mostly inhibitors | actives 1.8% (n = 300,000) | AID 540276; active = well fitted inhibition curve with a large enough effect; inconclusive = small, poorly fitted or top-dose-only effect, or effect the other way; inactive = flat fitted curve, though single readings scatter; tested in HEK293 cells; about a fifth of its hits are not listed in these tables; also: % is scaled to controls: 0 for no effect and ±100 for the full control effect; luciferase read-out
# RE007 growth inh – less growth of the S. pombe RE007 Vpr strain | S. pombe RE007 Vpr strain, BacTiter-Glo ATP luminescence, 24 h; control for the full effect not named in the record | Potency, µM (titrated, usually from 92.2 µM), without a hit: at the highest dose activity change, negative = less growth | actives 0.21% (n = 360,000); active = well fitted falling curve with a large enough effect; inconclusive = small, poorly fitted or top-dose-only effect; inactive = no such curve, though single readings can be large or run the other way;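 also: % is scaled to controls: 0 for no effect and ±100 for the full control effect; nearly all actives have a fitted effect of over 50% in size; the assay follows cell death caused by Vpr and the record does not say whether a fall means rescue or toxicity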
#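 Fission yeast strain RE007, carrying one chromosomally integrated HIV-1 vpr copy, was seeded at OD 0.01 in PMG+AL medium with 23 nL pinned compound. After 24 h at 30 °C and 99% humidity, viability was read by BacTiter-Glo luminescence.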
# NS1 inh – inhibitors of influenza NS1 protein function; actives 0.4% (n = 270,000); Potency, µM (titrated, usually from 46.1 µM), for the others: top-dose activity, positive = more growth; S. cerevisiae slowed by influenza A NS1, growth recovery by OD600; AID 2326; active means well fitted rising curve with a large enough effect; inconclusive means small, poorly fitted or top-dose-only effect; inactive means no such curve, though single readings can be large or run the other way; also: nearly all actives have a fitted effect of over 50% in size
#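 OD600 was taken as the measure of yeast growth restored by compound in an NS1-expressing S. cerevisiae strain. Cells had been washed out of glucose medium and diluted 1:100 into galactose -URA medium, pH 6.0.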
# StopGo reporter – FMDV 2A StopGo reporter, luciferase signal. human cells with a luciferase reporter of 2A StopGo recoding; control for the full effect not named in the record. Potency, µM (highest dose often 57.9 µM), inactives show at the top dose signal change, negative = less light. actives 1.2% (n = 410,000); active = well fitted falling curve with a large enough effect; inconclusive = small, poorly fitted or top-dose-only effect; inactive = no such curve, though single readings can be large or run the other way; tested in HEK293T cells; also: % is scaled to controls: 0 for no effect and ±100 for the full control effect; nearly all actives have a fitted effect of over 45% in size; luciferase light after 4 h
# SARS PLP yeast – blocks SARS-CoV papain-like protease in a yeast assay. S. cerevisiae expressing SARS-CoV PLpro, growth rescue; control for the full effect not named in the record. Potency, µM (top dose mostly 32.9 µM), without a hit: at the top dose activity, positive = growth rescue. actives 0.19% (n = 330,000). AID 485353; active means well fitted rising curve with a large enough effect; inconclusive means small, poorly fitted or top-dose-only effect; inactive means no such curve, though single readings can be large or run the other way; also: 0% is about no effect; nearly all actives have a fitted effect of over 55% in size; growth read by luminescence after 48 h
# Cruzain inh noDet – inhibitors of Trypanosoma cruzi cruzain without detergent; P25779; purified cruzain, Z-FR-AMC fluorescence, no detergent; Potency, µM, for the others: max response, negative = inhibition, hits mostly inhibitors; actives 2.3% (n = 200,000); AID 1476;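 also: plate controls were enzyme without inhibitor for no effect and buffer without enzyme for full effect; nearly all actives have a fitted effect of over 40% in size; top concentration of the series not given in the record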
#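 Purified cruzain at 1.5 nM, pre-incubated 15 min with compound at room temperature in 100 mM sodium acetate pH 5.5, 5 mM DTT, 0.00005% Triton X-100. Reaction started with 2 uM Z-FR-AMC; AMC fluorescence increase over 60 s gives rate.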
# The depositor's hits bear a star; ? = inconclusive; . = no result given; [ ] = another dose, or the depositor's remark. Unless noted, calls follow the shape of the dose curve; as a rule, active = well fitted curve in the direction sought with a large enough effect; inconclusive = small, poorly fitted or top-dose-only effect, or another doubt; inactive = no such curve, though single readings can be large; an effect the other way counts as inactive or inconclusive. Potency is read from the fitted curve at half-maximal effect.
Compound | Cruzain inh Det | Lassa entry inh | MARV entry inh | RE007 growth inh | NS1 inh | StopGo reporter | SARS PLP yeast | Cruzain inh noDet
CC1(C)Cc2c(sc3c2c2ncnn2c2nnc(SCC(=O)NCc4ccco4)n32)CO1 | -3.9% | -2% | 0% | 10% | 13% | 0% | 1% | -13%
CNc1nc2c(c(=O)[nH]c(=O)n2C)n1CCCc1ccccc1 | . | -2%[46.1 µM] | 8%[46.1 µM] | -19% | 3% | -2% | 0% | .
NC(=O)c1cc(NC(=O)COC(=O)CCCN2C(=O)c3cccc4cccc(c34)C2=O)cc(C(N)=O)c1 | . | 15%[46.1 µM] | 15%[46.1 µM] | 3% | . | -6% | 1% | .
COc1ccc(N2CCN(CCCNC(=O)c3cnn(-c4ccc(C)cc4)c3-n3cccc3)CC2)cc1 | -3.8% | 10%[46.1 µM] | . | . | . | ? | . | -11%
CCC1CCc2sc(C(=O)NCC(c3ccc(OC)cc3)N3CCCC3)cc2C1 (stereo not given) | . | ? | ? | 0% | . | -3% | 0% | .
O=C(/C=C/Nc1ccc(Br)cc1F)c1ccccc1 | -1.6% | 1.6µM* | 1.3µM* | -15% | 4% | ? | -17% | ?
Cc1ccc(C(=O)N(CC(=O)NC2CCCC2)c2cccc(F)c2)s1 | . | 11% | -8%[46.1 µM] | 1% | -12% | -19% | 0% | .
CN1CCC(N(C)c2ccc(C(N)=O)cc2[N+](=O)[O-])CC1 | . | 16% | 5%[46.1 µM] | -1% | -6% | 2% | 7% | .
CCCCOCCCNC(=O)C1c2ccccc2Oc2ccccc21 | . | -28% | -8% | -15% | 0% | -18% | 0% | .
O=c1c2c3c(sc2ncn1/N=C/c1ccc([N+](=O)[O-])o1)CCCC3 | -2.7% | ? | 1% | -2% | -57% | 28µM* | -26% | ?

# Other records follow.
Compound | Cruzain inh Det | Lassa entry inh | MARV entry inh | RE007 growth inh | NS1 inh | StopGo reporter | SARS PLP yeast | Cruzain inh noDet
COc1cc(OC)c(C(=O)OCC(=O)Nc2ccccc2Cl)cc1OC | . | 19% | 8%[46.1 µM] | -22% | -4% | -22% | 8% | .
CSCc1cc(N2CCOCC2)nc(SCc2ccc(Cl)cc2Cl)n1 | -6.2% | . | . | 5% | 19% | -19% | -27% | 1%
CC(=O)n1cc(/C=N/NC(=O)c2cccc(O)c2)c2ccccc21 | . | 18% | 21% | -6% | 2% | 12% | 1% | .
CCN(CC)S(=O)(=O)c1ccc(N2CC(C(=O)NCCc3c[nH]c4ccccc34)CC2=O)cc1 (stereo not given) | . | -22% | 17% | 1% | . | 19% | -2% | .
COc1ccccc1NS(=O)(=O)c1cc(NC(=O)Cn2cnc3c2c(=O)n(C)c(=O)n3C)ccc1C | -0.7% | -1% | 14% | -6% | ? | -3% | -2% | ?
c1cc(-c2nnc3sc(C4CCCCC4)nn23)ccn1 | -1.0% | 4% | -3% | 1% | 8% | -21% | -2% | 2%
Cn1c(-c2sc3cc(C(F)(F)F)cnc3c2-c2ccccc2)n[nH]c1=S | -2.7% | 6% | 5% | -4% | 17% | 0% | 2% | -3%
CCOc1cc(/C=N\NC(=O)OC(C)(C)C)ccc1OC(=O)c1ccco1 | . | 3% | 21%[46.1 µM] | 0% | . | 14% | -4% | .
CN1CCc2c(sc3c2C(=O)NC(c2ccccc2)N3)C1 (stereo not given) | -8.0% | ? | 6% | -9% | 9% | -20% | 6% | -16%
CC(C)c1ccc(CNc2c([N+](=O)[O-])c(=O)oc3ccccc23)cc1 | . | -9% | -15% | -4% | . | -16% | -2% | .

# Later entries.
Compound | Cruzain inh Det | Lassa entry inh | MARV entry inh | RE007 growth inh | NS1 inh | StopGo reporter | SARS PLP yeast | Cruzain inh noDet
O=c1oc2ccc(Cl)cc2cc1-c1nnc(Nc2cccc(C(F)(F)F)c2)s1 | -0.8% | 11% | -1% | -7% | -8% | -17% | -29% | 5µM*
CCc1ccc(N(CC(=O)NC2CCCCC2)C(=O)CCC(=O)Nc2ccccn2)cc1 | . | 16% | -7%[46.1 µM] | 11% | 2% | -6% | 2% | .
CC(=O)N1CCN(S(=O)(=O)c2ccccc2)C1c1ccccc1 (stereo not given) | 2.8% | 8% | 2% | 7% | ? | 21% | -16% | 11%
COc1ccc(CC(=O)N2CCc3cc(OC)c(OC)cc3C2COc2ccc3c(C)cc(=O)oc3c2)cc1OC (stereo not given) | 5.5% | 5%[46.1 µM] | ? | . | . | -2% | . | ?
N#CC1=C(N)SC(N)=C(C#N)C1c1ccoc1 | -7.9% | . | . | . | 21% | . | 1% | -24%
COc1ccc(NC(=O)c2ccc(C#CC(C)(C)O)cc2)cc1 | 7.4% | 5% | 4% | 6% | 9% | -7% | -6% | 3%
COc1ccc(NC(=O)COC(=O)CCNS(=O)(=O)c2ccc(Cl)cc2)cc1 | . | . | . | -7% | -5% | -19% | -1% | .
Cc1ccc2[nH]c3c(c2c1)CCN1C(=O)OC(C)(C)C31C (stereo not given) | . | -8% | -8%[46.1 µM] | 0% | . | -24% | 2% | .
COCCCNC(=O)c1ccccc1N(Cc1ccccc1)S(=O)(=O)c1ccccc1 | . | . | . | -4% | 6% | 24% | -6% | .
O=C(c1cccc(S(=O)(=O)Nc2ccc(Br)cc2)c1)N1CCC1 | . | . | . | 3% | 2% | 4% | 5% | .
Cc1cccc(N2C(=O)c3cccc4c(N(C)CCO)ccc(c34)C2=O)c1 | -7.5% | -8% | ? | 7% | 9% | ? | -3% | 6%
COc1ccc(C(=S)N2CCN(S(=O)(=O)c3ccccc3)CC2)cc1 | . | . | . | 1% | 8% | -9% | -3% | .
CCn1c(C)c(C(C)=O)c(N2CCN(C(c3ccccc3)c3ccccc3)CC2)nc1=S | . | ? | ? | 5% | 3% | 32µM* | 0% | .

# Eleven of the compounds above, with two lines to a compound:
# Below each SMILES: Cruzain inh Det | Lassa entry inh | MARV entry inh | RE007 growth inh | NS1 inh | StopGo reporter | SARS PLP yeast | Cruzain inh noDet
Cn1c(-c2sc3cc(C(F)(F)F)cnc3c2-c2ccccc2)n[nH]c1=S
 : -2.7% | 6% | 5% | -4% | 17% | 0% | 2% | -3%
CCOc1cc(/C=N\NC(=O)OC(C)(C)C)ccc1OC(=O)c1ccco1
 : . | 3% | 21%[46.1 µM] | 0% | . | 14% | -4% | .
CN1CCc2c(sc3c2C(=O)NC(c2ccccc2)N3)C1 (stereo not given)
 : -8.0% | ? | 6% | -9% | 9% | -20% | 6% | -16%
CC(C)c1ccc(CNc2c([N+](=O)[O-])c(=O)oc3ccccc23)cc1
 : . | -9% | -15% | -4% | . | -16% | -2% | .
O=c1oc2ccc(Cl)cc2cc1-c1nnc(Nc2cccc(C(F)(F)F)c2)s1
 : -0.8% | 11% | -1% | -7% | -8% | -17% | -29% | 5µM*
CCc1ccc(N(CC(=O)NC2CCCCC2)C(=O)CCC(=O)Nc2ccccn2)cc1
 : . | 16% | -7%[46.1 µM] | 11% | 2% | -6% | 2% | .
CC(=O)N1CCN(S(=O)(=O)c2ccccc2)C1c1ccccc1 (stereo not given)
 : 2.8% | 8% | 2% | 7% | ? | 21% | -16% | 11%
COc1ccc(CC(=O)N2CCc3cc(OC)c(OC)cc3C2COc2ccc3c(C)cc(=O)oc3c2)cc1OC (stereo not given)
 : 5.5% | 5%[46.1 µM] | ? | . | . | -2% | . | ?
N#CC1=C(N)SC(N)=C(C#N)C1c1ccoc1
 : -7.9% | . | . | . | 21% | . | 1% | -24%
COc1ccc(NC(=O)c2ccc(C#CC(C)(C)O)cc2)cc1
 : 7.4% | 5% | 4% | 6% | 9% | -7% | -6% | 3%
COc1ccc(NC(=O)COC(=O)CCNS(=O)(=O)c2ccc(Cl)cc2)cc1
 : . | . | . | -7% | -5% | -19% | -1% | .
